# MenB inh = Mtb MenB enzyme inhibition | MenB enzyme assay, absorbance read-out; some hits fall short of the stated cut | inhibition, %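 (about 12 µg/mL by stock and volumes)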 | actives 0.43% (n = 100,000) | AID 540299;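 active means mean of two replicates above 30%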;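 further: 0% = no compound and 100% = wells with inactive enzyme; the first replicate is given; strong numbers were not always called active; inactives centre near -10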
# Polio RdRp inh = poliovirus RNA polymerase inhibition; % elongation, % (compound at 16.7 µg/mL); actives 0.66% (n = 150,000); poliovirus polymerase elongation, fluorescence polarization; active compounds read low; P03300; in the data active means % elongation below about 90%; further: some results filed as inactive read as strong as hits
# Target sequence (P03300 1749-2209 limits assumed): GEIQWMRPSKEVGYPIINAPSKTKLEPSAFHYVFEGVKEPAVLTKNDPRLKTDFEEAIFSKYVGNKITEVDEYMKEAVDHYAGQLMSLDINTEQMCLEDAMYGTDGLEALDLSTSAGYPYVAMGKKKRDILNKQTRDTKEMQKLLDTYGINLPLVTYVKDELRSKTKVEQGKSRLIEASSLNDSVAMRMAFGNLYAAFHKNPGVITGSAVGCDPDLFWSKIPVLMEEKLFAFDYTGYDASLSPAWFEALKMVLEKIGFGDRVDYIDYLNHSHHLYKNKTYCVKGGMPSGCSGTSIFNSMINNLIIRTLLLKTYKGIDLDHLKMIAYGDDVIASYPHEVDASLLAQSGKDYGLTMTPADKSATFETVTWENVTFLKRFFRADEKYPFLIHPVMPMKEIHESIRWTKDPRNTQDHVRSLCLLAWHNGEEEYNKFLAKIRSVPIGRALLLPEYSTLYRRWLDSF
# MbtI inh = blocks the Mycobacterium tuberculosis siderophore enzyme MbtI | actives 0.89% (n = 100,000) | purified MbtI enzyme, fluorescence intensity read-out | inhibition, %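 (about 17 µg/mL by stock and volumes)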 | AID 493033;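 active means above 50% in both replicates, above 80% if mildly self-fluorescent; inactive means the rest, strongly fluorescent compounds included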;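 further: 0% = mean of negative and 100% = mean of positive controls; one replicate is shown; some compounds called inactive have numbers as strong as hits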
# Target sequence (P9WFX0 whole entry, looked up): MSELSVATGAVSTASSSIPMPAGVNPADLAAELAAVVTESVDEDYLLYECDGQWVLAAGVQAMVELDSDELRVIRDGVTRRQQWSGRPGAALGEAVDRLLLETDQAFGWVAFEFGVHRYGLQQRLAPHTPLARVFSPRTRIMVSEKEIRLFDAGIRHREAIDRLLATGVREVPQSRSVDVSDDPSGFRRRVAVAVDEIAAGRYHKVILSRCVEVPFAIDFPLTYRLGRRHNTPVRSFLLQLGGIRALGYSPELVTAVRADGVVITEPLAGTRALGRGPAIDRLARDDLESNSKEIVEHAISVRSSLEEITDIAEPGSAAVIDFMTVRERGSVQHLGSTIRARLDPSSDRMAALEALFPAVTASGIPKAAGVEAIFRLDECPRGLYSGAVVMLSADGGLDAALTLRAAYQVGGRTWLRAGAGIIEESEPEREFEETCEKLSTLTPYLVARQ
# Polio RdRp inh intensity = recorded beside Polio RdRp inh, whose call it bears; % elongation; measured here: total intensity read-out; formula for this scale not given here;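 total fluorescence in place of polarization; lower means less elongation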
# Active calls of the source: *; . = no result given; & = joins results of further samples.
SMILES,MenB inh,Polio RdRp inh,Polio RdRp inh intensity,MbtI inh
Nn1c(SCC(=O)NC2CCCc3ccccc32)nnc1-c1cccs1 (stereo not drawn),12,104,98,6
CCCCCC1C/C(=N/OC(C)=O)C=C(C)C1C(=O)OC (stereo not drawn),-34,99,101,-5
O=C(COc1ccccc1F)OCC(=O)N1CCCCC1,.,102,101,-6
CCCOc1ccc(Cn2cnc3ccccc32)cc1,-24,103,103,-2
O=C(CCS(=O)(=O)c1ccc(Br)cc1)N1CC(=O)N(CCc2ccccc2)C(=O)C1,-30,101,104,-11
CCN(CC)C(=O)COCc1cc(-c2ccco2)on1,6,101,97,18
Cc1cc(-c2csc(N)n2)c(C)n1-c1ccc2c(c1)OCO2,-17,106,98,-8
COc1cc(/C=N/OCC(=O)NC2CC2)cc(Cl)c1OC,-7,102,107,12
Cn1c(=O)c2sccc2n2c(CCCC(=O)NC3CCN(Cc4ccccc4)CC3)nnc12,17,102,103,28
CCC1CCCCN1C(=O)CSCc1ccco1 (stereo not drawn),.,103,103,-1
COC(C)n1cc(Br)c(=O)[nH]c1=O (stereo not drawn),8,102,103,.
Cc1nc(Nc2ccccc2)sc1C(=O)c1cc2ccccc2s1,-26,101,107,-4
O=C(CNC(=O)C1CCCCC1)OCc1cc(=O)n2c(n1)sc1ccccc12,-25,.,.,-6
O=C(Cc1ccccc1)N1CCCc2ccccc21,-11,105,112,.
COC(=O)c1ccc(CSc2nnc(-c3ccc(F)cc3)c3ccccc23)o1,-24,102,101,15
CCOC(=O)c1cnc(SC)nc1NC(=O)Nc1cccc(OC)c1,-10,101,100,-7
CCOC(=O)c1ccc(N=Cc2ccccc2O)cc1,1,104,102,.
C/C(=N\OCCN1CCCCC1)C1COc2ccccc2O1 (stereo not drawn),3,103,103,-20
N#CCCN(C(=O)c1ccc2c(=O)n3c(nc2c1)CCCC3)c1ccccc1,-4,97,92,3
Cc1c(C(=O)NCc2cccnc2)oc2ccc3c(c12)C(=O)CC1(CCCC1)O3,7,103,101,1
CCn1cc(NC(=O)NCC2CCCCC2)c(=O)c2ccc(C)nc21,9,101,102,-27
CN(C(=O)C1(c2cccs2)CCOCC1)c1ccccc1,-4,104,102,-1
Cc1ccccc1S(=O)(=O)Cc1ccc(C(=O)N2CCN(c3ccccc3)CC2)o1,-8,100,103,7
Cn1c(-c2ccccc2)c(C(=O)Cn2cnc3sccc3c2=O)c2ccccc21,3,105,111,-5
CCN(CCO)C(=O)CCN1C(=O)/C(=C\c2ccco2)SC1=S,-467,103,100,14
CC1=NNC(=O)C1C(c1cccc(F)c1)C(C#N)C#N (stereo not drawn),-33,97,101,-5
COC(=O)c1c(NC(=O)/C=C/c2ccc(OC)cc2)sc(C)c1C,-24,102,111,-1
CN(C(=O)COc1ccc(-c2nnco2)cc1)C1CCCc2ccccc21 (stereo not drawn),-18,105,128,-10
O=C(NCCCN1CCOCC1)C1CC(=O)N(c2ccccc2)C1 (stereo not drawn),-8,101,102,-4
CC(/C=C/C(=O)NO)=C\[C@@H](C)C(=O)c1ccc(N(C)C)cc1,-5,103&101,103&101,-3
CC(NS(=O)(=O)c1ccc(Br)cc1)C(=O)Nc1nc2ccccc2[nH]1 (stereo not drawn),-8,107,113,18
CNc1ccccc1C(=O)NC1CCCCC1,-11,109,110,-13
CCSc1nc2ccccc2c(=O)n1C,-17,103,103,-8
Cn1ccnc1SCc1nc2ccccc2c(=O)[nH]1,-18,104,107,4
NC(=O)COc1ccc(S(=O)(=O)N2CCc3ccccc32)cc1,6,98,102,-1
CC(C)CCN(C(=O)Cn1c(=O)oc2ccccc21)c1c(N)n(Cc2ccccc2)c(=O)[nH]c1=O,3,102,109,8
c1ccc(Nc2c(-c3ccc(N4CCOCC4)cc3)nc3ccccn23)cc1,-12,100,99,86
CC(Oc1ccccc1)C(=O)Nc1ccccc1C(=O)N1CCOCC1 (stereo not drawn),-5,103,104,-32
Oc1[nH]c2ccccc2c1C=Nc1ccc2cn[nH]c2c1,-79,99,101,-2
CC1(C)C(c2ccccc2)=[N+]([O-])C(C(=O)O)N1O (stereo not drawn),9,100,101,-2
Cc1nnsc1C(=O)NC(=O)Nc1ccc(F)c(Cl)c1,-2,103,105,-7
CCOC(=O)CSc1nnc(-c2ccccc2)c(=O)n1-c1ccccc1,-12,106,111,3
O=S(=O)(CCSCc1csc2ccccc12)c1ccc(Cl)cc1Cl,-31,109,109,-3
O=c1c2ccccc2nc(SCc2cccc(F)c2)n1C1CC1,-3,104,104,-10
Cn1c(CNc2nc(-c3ccccc3)cs2)nnc1SCC(=O)OC1CCCCC1,9,102,103,-3
COc1cccc(CC(=O)NC2CCN(c3ncc(C(F)(F)F)cc3Cl)CC2)c1,-3,101,110,-7
NC(=O)C1CCN(C(=O)c2cccs2)CC1,-5,107,106,.
CCOC(=O)c1sc2cc(OC)ccc2c1Cl,2,98,94,.
O=C(CSc1nc2ccccc2o1)c1ccc(Cl)cc1,15,104,102,6
Cc1ccc(C(=O)c2ccc(C)cc2)cc1,.,101,103,-5
CN1CCN(C(=O)c2ccc(COc3cc(Cl)ccc3Cl)o2)CC1,11,100,102,17
N#CCCN(Cc1cccs1)S(=O)(=O)c1ccc2c(c1)CCO2,-10,103,102,10
N#CC1=C2CCCCC2C(c2cccc(Br)c2)C(C#N)(C#N)C1=O (stereo not drawn),5,86,130,.
Cc1ccc2[nH]c3c(=O)n(CCN4CCCCC4C)cnc3c2c1 (stereo not drawn),-3,102,100,119
O=C(CSc1nc2ccccc2c(=O)[nH]1)N1CCOCC1,-15,107,118,.
N=Nc1c(O)n(Cc2ccccc2)c2ccccc12,-24,101,105,6
O=C(CSc1nc2ccccc2o1)NCC1CCCO1 (stereo not drawn),-10,105,104,-3
CCC1=NN(C(=O)COc2ccc(Cl)c(C)c2)C(O)(C(F)(F)F)C1 (stereo not drawn),-5,97,100,-2
Cc1ccc(CNC(=O)C2CSC3(C)CCC(=O)N23)cc1 (stereo not drawn),-9,108,108,1
O/N=C1/CCCc2occc21,-20,102,97,19

# (further entries)
SMILES,MenB inh,Polio RdRp inh,Polio RdRp inh intensity,MbtI inh
Cc1c(-n2c(SCC(=O)O)nnc2-c2ccccc2Br)c(=O)n(-c2ccccc2)n1C,-29,98,103,-9
NCC(O)CNCCc1ccccc1 (stereo not drawn),-52,106,99,3
NC(=O)Nc1ccc2c(c1)OCO2,-23,96,95,-2
COC(=O)c1ccc2c(c1)C(=O)/C(=C/c1ccc(C)o1)O2,-9,102,109,7
CCOC(=O)/C(=C\c1cccc2ccccc12)C1=Nn2c(C)nnc2SC1,-18,104,109,3
O=C(NCCCN1CCCC1=O)c1nnc(-c2ccc3c(c2)OCO3)o1,-18,101,100,2
CCCSc1nnc(-c2ccc(F)cc2)o1,-12,100,99,-5
CCOC(=O)N1CCN(C(=O)CSc2ccc(-c3cccs3)nn2)CC1,-18,98,99,1
O=C(NCCc1ccc(Cl)cc1)C(c1ccccc1)c1ccccc1,-4,107,100,.
CNc1nc(SCc2ccc(C#N)cc2)nc2ccccc12,-2,104,111,-21
Clc1nc(-c2ccccc2)nc2sc3c(c12)CCCC3,-12,104,109,.
CCc1ccc(CN(C)CC(=O)N(C)c2c(N)n(Cc3ccccc3)c(=O)[nH]c2=O)cc1,-27,105,101,1
CC(C)NC(=O)C1c2ccccc2C(=O)N(C)C1c1cccs1 (stereo not drawn),-8,103,102,-7
COc1ccc(C=NCC2OCCc3ccccc32)cc1OC (stereo not drawn),4,104,106,3
CCOC(=O)C(Sc1nc2c(c(=O)[nH]1)CCCC2)c1ccccc1 (stereo not drawn),-10,.,.,74*
CCN1C(=O)N(c2ccc(C)c(Cl)c2)S(=O)(=O)c2ccccc21,0,100,101,-6
NC(=O)COC(=O)C1c2ccccc2Oc2ccccc21,.,101,105,-9
C=CCNc1nc(Cl)nc(Cl)n1,-6,98,100,-7
O=C(NC1(C(F)(F)F)N=C2SCCN2C1=O)c1ccccc1 (stereo not drawn),9,101,101,-1
Cc1ccc(C(=O)COC(=O)/C=C/c2nc3ccccc3o2)c(C)c1,-23,105,112,-2
Cc1nn(CCC(=O)Oc2ccc(Cl)cc2)c(C)c1Cl,-28,103,104,7
CCSc1sc(CN(C)C)cc1/C=N/O,6,110,113,.
CCc1ccc(CNC(=O)C2CCC(=O)N2C2CCCCC2)cc1 (stereo not drawn),-15,100,101,-6
Cc1noc(C)c1COC(=O)/C(C#N)=C/c1cc(C)n(-c2ccc(Cl)c(C(F)(F)F)c2)c1C,-22,116,123,-8
CCCCNc1ccccc1C(=O)OCc1nc2ccccc2c(=O)n1CC#N,7,98,110,111
CNC(=O)COC(=O)c1cc(C)n(-c2ccc(F)cc2)c1C,0,101,101,-3
Cc1cc(Nc2ccc(F)c(Cl)c2)nc(NC(=O)C(C)(C)C)n1,-10,102,101,-19
COC(=O)C1=C(C)NC2=C(C(=O)c3ccccc32)C1c1cc2c(cc1Cl)OCO2 (stereo not drawn),-27,101,103,-12
CCC(C)c1ccccc1NC(=O)COC(=O)Cc1ccsc1 (stereo not drawn),.,102,107,-15
CC1CCCN(C(=O)CSc2nnc(COc3ccc(Cl)cc3)n2C)C1 (stereo not drawn),24,99,102,-1

# Part of the list above in a different format.
molecule	MenB inh	Polio RdRp inh	Polio RdRp inh intensity	MbtI inh
CC(C)NC(=O)C1c2ccccc2C(=O)N(C)C1c1cccs1 (stereo not drawn)	-8	103	102	-7
COc1ccc(C=NCC2OCCc3ccccc32)cc1OC (stereo not drawn)	4	104	106	3
CCOC(=O)C(Sc1nc2c(c(=O)[nH]1)CCCC2)c1ccccc1 (stereo not drawn)	-10	.	.	74*
CCN1C(=O)N(c2ccc(C)c(Cl)c2)S(=O)(=O)c2ccccc21	0	100	101	-6
NC(=O)COC(=O)C1c2ccccc2Oc2ccccc21	.	101	105	-9
C=CCNc1nc(Cl)nc(Cl)n1	-6	98	100	-7
O=C(NC1(C(F)(F)F)N=C2SCCN2C1=O)c1ccccc1 (stereo not drawn)	9	101	101	-1
Cc1ccc(C(=O)COC(=O)/C=C/c2nc3ccccc3o2)c(C)c1	-23	105	112	-2
Cc1nn(CCC(=O)Oc2ccc(Cl)cc2)c(C)c1Cl	-28	103	104	7
CCSc1sc(CN(C)C)cc1/C=N/O	6	110	113	.
CCc1ccc(CNC(=O)C2CCC(=O)N2C2CCCCC2)cc1 (stereo not drawn)	-15	100	101	-6
Cc1noc(C)c1COC(=O)/C(C#N)=C/c1cc(C)n(-c2ccc(Cl)c(C(F)(F)F)c2)c1C	-22	116	123	-8
CCCCNc1ccccc1C(=O)OCc1nc2ccccc2c(=O)n1CC#N	7	98	110	111
CNC(=O)COC(=O)c1cc(C)n(-c2ccc(F)cc2)c1C	0	101	101	-3
Cc1cc(Nc2ccc(F)c(Cl)c2)nc(NC(=O)C(C)(C)C)n1	-10	102	101	-19

# Next part
SMILES,MenB inh,Polio RdRp inh,Polio RdRp inh intensity,MbtI inh
CCOc1nc(C)ccc1-c1noc(-c2cccc(C)c2)n1,-7,106,114,.
Cc1cc2oc(=O)cc(CN(C)C3CCCCC3)c2cc1C(C)C,-9,101,106,5
O=C(OCCN1C(=O)c2ccccc2C1=O)c1ccccc1O,3,111,110,-29
CCOC(=O)C1=C(C)NC(C)=C(C(=O)OCC)C1C(=O)OCc1cn2cc(Cl)ccc2n1,-5,105,102,-22
Cn1ccsc1=NC(=O)/C=C/c1ccc2c(c1)OCO2,-32,92,92,-3
O=C(CN1CCN(S(=O)(=O)c2cccs2)CC1)Nc1ccc(S(=O)(=O)N2CCCC2)cc1,-22,103,106,-8
COc1cc2c(cc1OC)CN(Cc1cccs1)CC2,-15,100,103,-2
CCOc1ccc(C(=O)OCC#N)cc1OCC,-10,106,110,7
O=S(=O)(c1ccc(Sc2nnc3ccccn23)nc1)N1CCCC1,-9,99,102,17
CC1(C)CC(NC(=O)CC2CCCCC2)CC(C)(C)N1,-1,102,103,-5
COc1ccc(NC(=O)Nc2ccc(CN3CCCCC3)cc2)cc1,-21,105,100,-15
COc1cccc(/C=C/C(=O)NCc2csc(-c3ccccc3)n2)c1,.,100,96,22
CCOc1ccc(/C(O)=C/C(=O)C(=O)OC)cc1,-20,102,99,-1
CCC(C)C(=O)N1CCN(c2cccc(Cl)c2)CC1 (stereo not drawn),2,103,98,.
COC(=O)c1ccc(OC(=O)CCn2ccc3ccccc32)cc1,-18,103,106,-11
Clc1ccc(OCCN2CCCC2)c2ccccc12,-29,103,102,151
N#CCC(=O)Nc1ccc(C(=O)Nc2cccc(Cl)c2)cc1,4,103,104,9
CCOC(=O)N1CCC(NC(=O)CCC(=O)N2CC(C)Oc3ccc(Cl)cc32)CC1 (stereo not drawn),-19,103,102,0
Cc1oc2cc(OC(=O)N3CCOCC3)ccc2c(=O)c1-c1ccc(Br)cc1,2,102,104,1
O=c1[nH]cc(S(=O)(=O)N(Cc2ccccc2)Cc2ccccc2)c(=O)[nH]1,-1,102,103,1
CCOC(=O)N1CCC(NC(=O)CN(C)S(=O)(=O)c2ccc3nc(C)sc3c2)CC1,-43,103,99,0
O=c1[nH]c(=S)[nH]c(O)c1C(c1ccc(F)cc1)N1CCCCC1 (stereo not drawn),-52,102,104,7
O=C(Nc1ccc(C(F)(F)F)cc1)c1cnc2ccccc2n1,9,100,104,-4
O=C(NC1CC1)c1c(O)c2cccc3c2n(c1=O)CC3,-32,102,101,23
CCc1ccc(NC(=O)N(Cc2c[nH]c3ccccc23)C(C)C)cc1,0,105,99,8
N#Cc1ccc(COC(=O)CCSc2ccccc2)cc1,-20,100,107,-2
COc1ccccc1/C=C/C=N\NC(=O)Cc1cccn1C,-39,107,102,4

# A section from the list above, for reference:
SMILES,MenB inh,Polio RdRp inh,Polio RdRp inh intensity,MbtI inh
O=C(NCCc1ccc(Cl)cc1)C(c1ccccc1)c1ccccc1,-4,107,100,.
CNc1nc(SCc2ccc(C#N)cc2)nc2ccccc12,-2,104,111,-21
